VDR inhibitor – vitamin D3 receptor (human) inhibition; P11473; VDR-SRC2-3 peptide fluorescence polarization, 2 h; Potency, µM, for the others: max response, negative = inhibition, most hits filed as inhibitors; 400,000 tested, 0.93% active; AID 504847; active = well fitted inhibition curve with a large enough effect; inconclusive = small, poorly fitted or top-dose-only effect, or another doubt; inactive = no such curve, though single readings can be large or run the other way; note: series mostly up to about 120 µM
Target sequence (P11473 whole entry, looked up): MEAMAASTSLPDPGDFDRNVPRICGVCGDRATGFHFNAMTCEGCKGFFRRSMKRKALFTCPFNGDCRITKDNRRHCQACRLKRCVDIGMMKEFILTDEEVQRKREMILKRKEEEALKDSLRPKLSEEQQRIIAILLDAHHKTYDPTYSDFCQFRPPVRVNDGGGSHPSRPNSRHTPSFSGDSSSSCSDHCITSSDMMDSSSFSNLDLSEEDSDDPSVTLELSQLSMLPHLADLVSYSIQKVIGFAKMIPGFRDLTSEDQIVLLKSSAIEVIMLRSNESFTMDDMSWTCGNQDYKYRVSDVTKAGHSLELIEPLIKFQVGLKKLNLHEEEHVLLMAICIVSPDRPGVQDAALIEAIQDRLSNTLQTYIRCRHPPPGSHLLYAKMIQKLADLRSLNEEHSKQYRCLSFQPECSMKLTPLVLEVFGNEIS
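Inhibition of the VDR/SRC2-3 peptide interaction is quantified by fluorescence polarization. Compounds (23 nl, pintool) incubate with the reagents for 2 hours at ambient room temperature.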
* hit, by the source's call; u = inconclusive; & = joins results of further samples. % is set by controls: 0 for no effect and ±100 for the full control effect; potency is the fitted concentration of half-maximal effect. This is a subset. The share of hits here may be higher or lower than overall.

VDR inhibitor	compound
12.5%	O=C(COc1ccc(S(=O)(=O)N2CCOCC2)cc1Cl)NCC1CCCO1 (stereo not given)
-7.2%	Cc1ccc(S(=O)(=O)N2CCC(C(N)=O)CC2)cc1[N+](=O)[O-]
1.5%	Cc1nc2c(C#N)cnn2c2c1CCN2CC1CCCO1 (stereo not given)
1.0%	O=C(CSc1ncccn1)NCc1cccc(Cl)c1
50.1µM*	Cn1c(/C=C/c2ccc(Br)cc2)c([N+](=O)[O-])c(=O)n(C)c1=O
10.3%	CCOC(=O)C1CCCN(CC(=O)NC2CC2)C1 (stereo not given)
-5.6%	CC1CCC(NC(=O)CCN2C(=O)C3C4C=CC(C4)C3C2=O)CC1 (stereo not given)
-1.1%	Cc1ccc(O)c(CNc2nc3ccccc3[nH]2)c1
0.6%	O=C(O)c1cc(-c2ccccc2)n(-c2ccc(F)cc2)n1
-1.5%	COc1ccc(C2c3[nH]c4ccccc4c3CCN2C(=O)c2ccccc2C(C)=O)c(F)c1 (stereo not given)
-4.8%	Cn1cccc1C(=O)N1CCC2(CCN(C(=O)Nc3cccc(C#N)c3)CC2)CC1
-4.0%	CC(=O)N1CCCc2cc(S(=O)(=O)N3CCC(C(=O)NCc4ccc(F)cc4)CC3)ccc21
3.6%	CCN1CCN(Cc2ccc(NC(=O)c3cc(NC(=O)c4ccc5n[nH]nc5c4)cc(OC)c3)cc2C(F)(F)F)CC1
5.9%	CC(=O)Nc1ccc(OC(F)(F)C(F)F)c(NC(C)=O)c1
5.3%	NS(=O)(=O)c1ccc(CCNC(=O)Nc2ccc(Cl)cc2)cc1
5.4%	CC(C)c1ccc(S(=O)(=O)Nc2ccc(-n3cnnn3)cc2)cc1
12.5%	CCOc1ccccc1CNc1nnnn1C
6.1%	O=C(c1ccco1)N1N=C(c2cccs2)CC1c1ccccc1O (stereo not given)
4.2%	Cc1onc(-c2ccccc2)c1C(=O)NCCN1CCOCC1
-25.2%	CCOC(=O)CN1C(=O)C(O)(CC(=O)c2ccccn2)c2ccccc21 (stereo not given)
11.3%	O=c1[nH]nnc2sc3c(c12)CCCC3
-5.2%	COc1ccc(C2CC(c3cccs3)=NN2C(=O)CSc2nnnn2C)cc1OC (stereo not given)
11.9%	CCC1(CC)C(=O)C2=C3C1[C@H](C(=O)OC)CC(C(=O)OC)C[C@H]3[C@H]1C(=O)N(C)C(=O)[C@H]1[C@H]2C (stereo not given in full)
-28.3%	CCN1C(=O)[C@H]2[C@@H](c3ccc(C)cc3)N3C(=O)N(c4cccc(Cl)c4)C(=O)[C@@]3(C)[C@H]2C1=O
-14.2%	COCC(C)NC(=S)N1CCN(c2ccccc2Cl)CC1 (stereo not given)
-17.8%	CCC(c1nnc(SCC(=O)NCCc2ccc(OC)c(OC)c2)n1Cc1ccccc1)N(C)C (stereo not given)
3.1%	Cc1cccc(C(=O)Nc2ccc3nc(SCC(=O)N4CCc5ccccc54)sc3c2)c1
-1.9%	COc1ccc(CCNC(=O)C2CC(c3c(Cl)cccc3Cl)=NO2)cc1 (stereo not given)
-12.6%	COc1cccc(CN2CCN(c3ncccn3)CC2)c1OC
-18.5%	CCCCN(CCCC)S(=O)(=O)c1ccc(NC(=O)c2ccc([N+](=O)[O-])cc2Cl)cc1
-2.7%	CN(C)c1ccc(NC(=O)c2ccc(Cn3cc([N+](=O)[O-])cn3)cc2)cc1
25.4%	O=C(CCS(=O)(=O)c1ccccc1)Nc1nc(-c2ccc(F)cc2)cs1
0.2%	Cc1cnn(-c2nc(-c3cccs3)cc(C(F)(F)F)n2)c1
0.2%	O=C(O)[C@@H]1CC(O)CN1C(=O)CCc1c[nH]c2ccccc12 (stereo not given in full)
u	CC1(C)CC(=O)C(N=Nc2ccc(C(F)(F)F)cc2[N+](=O)[O-])=C(O)C1
22.5%	COc1cc(Nc2ccc(C)cc2)c([N+](=O)[O-])nc1[N+](=O)[O-]
9.2%	CC1CCN(S(=O)(=O)c2ccc3c(ccn3CC(=O)NCc3ccccc3F)c2)CC1
3.0%	CCn1cc(C(=O)O)c(=O)c2cnc(N3CCN(C(=S)NC(=O)c4ccc(Cl)cc4)CC3)nc21
5.6%	COc1ccc(/C=N/NC(=O)c2ccc(Cl)cc2)cc1Cn1cc(Cl)cn1
-9.7%	COc1ccc(-c2noc(CCC(=O)NCc3ccco3)n2)cc1
-8.7%	CCCn1cc(S(=O)(=O)c2ccccc2)c(=O)c2cc(CC)ccc21
5.3%	CCCn1nnnc1SCC(=O)N1CCOCC1
1.0%&-22.7%	COc1ccccc1N(CC(=O)NCCSCc1ccccc1)S(C)(=O)=O
-12.0%	COc1ccc(CCNc2oc(COc3ccc(Cl)cc3)nc2C#N)cc1OC
-12.4%	Cc1cc(C)n2nc(C(=O)OCCOc3ccc(Br)cc3)nc2n1
-1.6%	O=C(COC(=O)c1ccco1)NC1CCCCC1
5.6%	COc1cc(CNC2CCCC2)c(Br)cc1OC1CCCC1
-16.9%	Cc1ccccc1C(=O)NCCn1cc(SCC(=O)NCC2CCCO2)c2ccccc21 (stereo not given)
u	Cn1nc(-c2ccccc2)c(CO)c1Oc1ccc(F)cc1
-5.7%	COc1ccc(Oc2ncc3nc(C)c(=O)n(C4CC4)c3n2)cc1
-15.1%	Cc1cc(C)nc(-n2nc(C)c(C3(O)C(=O)Nc4ccccc43)c2N)n1 (stereo not given)
-27.2%	CCOC(=O)c1c(N)sc(C(=O)OC)c1C
-1.7%	CCc1ccccc1Nc1ncnc2ccccc12
3.1%	N#Cc1c(N)nc2c(c1-c1cccs1)CCCC2
0.0%	COc1ccc(-n2c(Cc3cccn3C)nnc2SCC(=O)NCc2ccccc2Cl)cc1
-10.4%	Cc1ccc(-n2c(-c3cccc(C)c3)n[nH]c2=S)cc1
1.1%	Cc1ccc(NC(=O)c2nc(C)n(-c3ccc([N+](=O)[O-])cc3)n2)cc1
0.7%	CCOC(=O)N1CCN(C(=O)CSc2ccc3nnc(CCNC(=O)c4ccc(OC)cc4)n3n2)CC1
15.2%	COc1ccc(NC(=O)N2CC3(CCN(C(=O)c4c(C)noc4C)CC3)C2)cc1
-2.3%	COc1cccc(-c2ncc3ccccc3c2COC(=O)N2CCCCC2)c1

The results go on:
VDR inhibitor	compound
2.0%	N/C(=N\OC(=O)Nc1ccc(Cl)c(Cl)c1)c1ncc(C(F)(F)F)cc1Cl
11.6%	O=C(O)/C=C/C(=O)Nc1ccc(OC(F)(F)Cl)cc1
-0.9%	O=C(NCc1ccc(Cl)cc1)NCc1ccc(Cl)cc1
0.2%	O=C(Cn1cc(C(=O)c2ccncc2)c(=O)c2cc(F)ccc21)Nc1ccc(Cl)cc1
2.7%	N#Cc1ccc(S(=O)(=O)N2CCCN(c3nc4ccc(Cl)cc4s3)CC2)cc1
10.1%	O=C(Cn1cc(C(=O)C2CC2)c2ccccc21)NCC1CCCO1 (stereo not given)
3.7%	Cn1cc(C(=O)C(=O)NCCc2ccccc2)c2ccccc21
17.4%	O=C(CNC(=O)c1ccccc1)NCC(O)c1ccc([N+](=O)[O-])cc1 (stereo not given)
12.2%	C=CCn1cc(/C=N/NC(=O)COc2cccc3cccnc23)c2ccccc21
-21.7%	COc1cccc(OCc2cc(C(=O)N(C)Cc3nccn3C)no2)c1
1.0%	O=C(c1ccco1)N1CCN(C(=O)C2CCN(S(=O)(=O)c3cnc[nH]3)CC2)CC1
0.2%	COc1ccc2cc(/C=N/NC(=O)CN(c3ccccc3C)S(=O)(=O)c3ccccc3)c(Cl)nc2c1
-5.1%	COc1ccc(CC(=O)NC2CC(=O)N(c3ccc4c(c3)OCCO4)C2)cc1 (stereo not given)
-6.5%	O=C(CCOc1ccccc1)N1CCN(S(=O)(=O)c2cccs2)CC1
-4.0%	Cc1nnc(-c2cnn(-c3ccccc3)c2N)n1Cc1cccc(C(F)(F)F)c1
1.4%	O=C(CNc1cccc(S(=O)(=O)N2CCCC2)c1)Nc1ccc(C(F)(F)F)cc1
9.0%	C=CCOc1ccc(Oc2cc(C)nc(SC)n2)nn1
-4.4%	COc1ccc(-c2cc(-c3cccs3)nc3sc(C#N)c(N)c23)cc1
-7.2%	CCN1CCc2c(OCC(=O)N3CCC(C)CC3)cccc2C1=O
4.7%	Cc1cc(/C=C2\C(=N)N3N=C(C(C)C)SC3=NC2=O)c(C)n1-c1ccccc1
-6.0%	O=C(NCCCN1CCN(c2ccc(F)cc2)CC1)Nc1ccccc1Cl
1.5%	CCc1ccc(C2N3CC4([N+](=O)[O-])CN2CC([N+](=O)[O-])(C3)C4(C)C)cc1 (stereo not given)
5.8%	CCN(CC)C(=O)CS(=O)CC(=O)Nc1cc(OCCOC)c(Cl)cc1Cl (stereo not given)
-4.8%	Cc1ccc(Cl)cc1N1CCN(C(=O)CCC(=O)O)CC1
-5.4%	CCc1ccc(OCCOCC(O)CNC2CCCC2)cc1 (stereo not given)
-5.0%	COc1ccc(S(=O)(=O)N2CCOCC2)cc1NC(=O)COc1ccc2ccc(=O)oc2c1
5.6%	COc1ccc(CCNC(=O)CSc2ccc(-c3ccco3)nn2)cc1
0.9%	COCCn1c(SCC(=O)c2c(-c3ccccc3)n(C)c3ccccc23)nnc1-c1ccncc1
-5.4%	NC(=O)c1ccc(NC(=O)COc2cccc3ccccc23)cc1
-5.4%	O=C(NC(=S)Nc1ccc(S(=O)(=O)Nc2nccs2)cc1)c1cccnc1
-19.5%	COCCCN1C(=O)c2[nH]nc(-c3cc(C)cc(C)c3O)c2C1c1ccc(O)c(OC)c1 (stereo not given)
-9.3%	CCOc1ccccc1C(=O)NCCCN1CCN(CCCNC(=O)c2ccccc2OCC)CC1
4.1%	Cc1cc(C)c(CN2C(=O)c3ccccc3S(=O)(=O)c3ccc(C(=O)OCC4CCCO4)cc32)c(C)c1 (stereo not given)
-6.3%	Cc1cccn2c(=O)c(C=C(C#N)C#N)c(N3CCN(c4ccccc4)CC3)nc12
-12.2%	CCc1cccc(C)c1NC(=O)C(NS(=O)(=O)c1ccc2c(c1)CCC(=O)N2)c1ccccc1 (stereo not given)
-5.6%	CCOC(CNC(=O)CCc1c(C)nc2nc(C)nn2c1C)OCC

In the list so far, eight contain an NH in an aromatic ring:
VDR inhibitor	compound
-1.1%	Cc1ccc(O)c(CNc2nc3ccccc3[nH]2)c1
-1.5%	COc1ccc(C2c3[nH]c4ccccc4c3CCN2C(=O)c2ccccc2C(C)=O)c(F)c1 (stereo not given)
3.6%	CCN1CCN(Cc2ccc(NC(=O)c3cc(NC(=O)c4ccc5n[nH]nc5c4)cc(OC)c3)cc2C(F)(F)F)CC1
11.3%	O=c1[nH]nnc2sc3c(c12)CCCC3
0.2%	O=C(O)[C@@H]1CC(O)CN1C(=O)CCc1c[nH]c2ccccc12 (stereo not given in full)
-10.4%	Cc1ccc(-n2c(-c3cccc(C)c3)n[nH]c2=S)cc1
1.0%	O=C(c1ccco1)N1CCN(C(=O)C2CCN(S(=O)(=O)c3cnc[nH]3)CC2)CC1
-19.5%	COCCCN1C(=O)c2[nH]nc(-c3cc(C)cc(C)c3O)c2C1c1ccc(O)c(OC)c1 (stereo not given)

Later entries:
VDR inhibitor	compound
-10.9%	Cc1cc(N2CCC(C)CC2)nc(-c2ccccc2O)n1
-23.5%	CCOC(=O)c1ccc(Nc2nc3ccccc3nc2NS(=O)(=O)c2ccc(Cl)cc2)cc1
3.8%	COc1ccc(NCc2nnc(SCC(=O)NCc3ccccc3)n2-c2ccccc2OC)cc1
-17.3%	COc1cccc(-c2nc3ccc(C(=O)NC(C)Cc4cccnc4)cc3o2)c1 (stereo not given)
1.4%	C[C@@]12C(=O)N(CCO)CC(=O)N1[C@H](/C=C/c1ccccc1)[C@@H]1C(=O)N(c3ccccc3)C(=O)[C@@H]12
-1.6%	COC(=O)c1ccc(NC(=O)CSCc2ccc(C)cc2)cc1
-18.6%	COc1cc2c(C#CCCCO)c(-c3ccc(C#N)cc3)oc(=O)c2cc1OC
u	N#C/C(=C\c1ccccc1[N+](=O)[O-])C(=O)NC1CCCCC1
8.4%	COc1ccc(C(CNC(=O)c2cccc(S(=O)(=O)NCc3ccccc3)c2)N(C)C)cc1 (stereo not given)
-1.4%	CSc1ccccc1OCc1cc(C(=O)NC(C)Cn2cncn2)no1 (stereo not given)
-9.6%	COc1ccc(OC)c(CCNC(=O)Cn2nc(C)c3c(C)n(-c4ccc(C)cc4)nc3c2=O)c1
10.0%	CC(C)c1onc(C(=O)N2CCN(Cc3ccccc3)CC2)c1[N+](=O)[O-]
3.3%	CC(=O)Oc1cccc(C(=O)Nc2ccccc2C(=O)N2CCCC2)c1
-2.4%	CC(C)Cn1nc(NS(=O)(=O)c2ccccc2)c2cc3ccccc3nc21
-20.6%	COc1cc2c(cc1OC)CN(C(=O)CCOc1ccccc1C)CC2
-8.7%	COc1ccc(CCN(C)CC(=O)Nc2ccc(F)c(Cl)c2)cc1OC
-3.9%	Cc1ccc2nc(SC(C)C(=O)NCc3ccc4c(c3)OCO4)[nH]c2c1 (stereo not given)
u	Cc1ccccc1-c1cncnc1NCCN1CCOCC1
-6.3%	COc1ccc(-c2cc(C(=O)N/N=C/c3cccnc3)c3ccccc3n2)c(OC)c1
-1.7%	O=C(Nc1nc(-c2ccc(Br)cc2)ns1)c1ccc(F)cc1
-11.7%	Cn1cc(/C=C2/SC(=O)N(c3ccccc3)C2=O)c2ccccc21
7.6%	O=C(CC1N=C2c3ccccc3N=C(SCc3ccccc3Cl)N2C1=O)NCc1cccs1 (stereo not given)
u	Cc1cccc(NC(=O)C2SC(=Nc3c(C)cccc3C)C(C(=O)N3CCOCC3)=C2N)c1 (stereo not given)
-10.1%	CCOC(=O)C1CCCN(Cc2c(C(=O)N3CCCCC3)nc3c(C)cccn23)C1 (stereo not given)
